# Compound activity (PubChem)
# NS1 inh – qHTS Assay for Inhibitors of Influenza NS1 Protein Function; Potency, µM (series often up to 46.1 µM), for the others: at the highest dose activity, positive = more growth; AID 2326, 2010; 270,000 compounds, 0.4% hits; S. cerevisiae slowed by influenza A NS1, growth recovery by OD600; active means well fitted rising curve with a large enough effect; inconclusive means small, poorly fitted or top-dose-only effect; inactive means no such curve, though single readings can be large or run the other way; further: nearly all actives have a fitted effect of over 50% in size
#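 Growth recovery, yeast-based: influenza A NS1 expressed in S. cerevisiae causes slow growth, and suppressors are detected by OD600. The parent strain without NS1 is used as positive control.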
# Cruzain inh Det – qHTS Assay for Promiscuous and Specific Inhibitors of Cruzain (with detergent) | Potency, µM, without a hit: max response, negative = inhibition, usual class: inhibitors | 200,000 compounds, 0.43% hits | AID 1478, 2009 | purified cruzain, Z-FR-AMC fluorescence, 0.01% Triton;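 further: plate controls were neutral wells for no effect and buffer without enzyme for full effect; nearly all actives have a fitted effect of over 40% in size; top concentration of the series not given in the record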
# Target sequence (P25779 123-467 limits assumed): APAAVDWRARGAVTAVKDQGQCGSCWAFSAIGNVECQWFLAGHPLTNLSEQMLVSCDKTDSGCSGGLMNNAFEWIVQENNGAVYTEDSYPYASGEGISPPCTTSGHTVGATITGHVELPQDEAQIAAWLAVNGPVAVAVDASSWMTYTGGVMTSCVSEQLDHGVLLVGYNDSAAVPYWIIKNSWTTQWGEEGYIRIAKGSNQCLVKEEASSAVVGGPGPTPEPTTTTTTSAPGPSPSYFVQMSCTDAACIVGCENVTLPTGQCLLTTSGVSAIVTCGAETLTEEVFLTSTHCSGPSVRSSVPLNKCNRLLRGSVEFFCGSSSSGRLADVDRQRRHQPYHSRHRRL
#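 Steps: dispense cruzain (1.5 nM final) in acetate buffer pH 5.5 with DTT and 0.01% Triton X-100; pin-transfer compounds; incubate 15 min RT; add Z-FR-AMC (2 uM final); read fluorescence every 30 s, using the 60 s intensity change.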
# RE007 growth inh – qHTS Assay for Inhibitors of the HIV-1 protein Vpr | Potency, µM (highest dose often 92.2 µM), inactives show at the highest dose activity change, negative = less growth | 360,000 compounds, 0.21% hits | S. pombe RE007 Vpr strain, BacTiter-Glo ATP luminescence, 24 h; control for the full effect not named in the record | AID 651644, 2012; active = well fitted falling curve with a large enough effect; inconclusive = small, poorly fitted or top-dose-only effect; inactive = no such curve, though single readings can be large or run the other way;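 further: on the % scale 0 is the no-effect control and ±100 the full control effect; nearly all actives have a fitted effect of over 50% in size; the assay follows cell death caused by Vpr and the record does not say whether a fall means rescue or toxicity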
#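 Fission yeast strain RE007, carrying one chromosomally integrated HIV-1 vpr copy, was seeded at OD 0.01 in PMG+AL medium with 23 nL pinned compound. After 24 h at 30 °C and 99% humidity, viability was read by BacTiter-Glo luminescence.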
# MARV entry inh – qHTS for inhibitors of binding or entry into cells for Marburg Virus | Marburg virus pseudotyped entry inhibition, cell reporter; control for the full effect not named in the record; about a third of the inactives were read at about 46 µM | 300,000 compounds, 1.8% hits | AID 540276, 2011 | Potency, µM (titrated, usually from 37.8 µM), for the others: at the highest dose activity change, negative = inhibition, hits mostly inhibitors; active = well fitted inhibition curve with a large enough effect; inconclusive = small, poorly fitted or top-dose-only effect, or effect the other way; inactive = flat fitted curve, though single readings scatter; tested in HEK293 cells; about a fifth of its hits are not listed in these tables; further: on the % scale 0 is the no-effect control and ±100 the full control effect; luciferase read-out
# Lassa entry inh – qHTS for Inhibitors of binding or entry into cells for Lassa Virus. Potency, µM (highest dose often 37.9 µM), inactives show top-dose activity change, negative = inhibition, usual class: inhibitors. Lassa virus pseudotype entry inhibition, cell reporter; control for the full effect not named in the record. 300,000 compounds, 1.2% hits; active means well fitted inhibition curve with a large enough effect; inconclusive means small, poorly fitted or top-dose-only effect, or effect the other way; inactive means flat fitted curve, though single readings scatter; tested in HEK293 cells; further: on the % scale 0 is the no-effect control and ±100 the full control effect; nearly all actives have a fitted effect of over 50% in size; luciferase read-out
# Cruzain noTriton – qHTS Assay for Promiscuous and Specific Inhibitors of Cruzain (without detergent); Cruzipain (Trypanosoma cruzi), P25779; purified cruzain, Z-FR-AMC fluorescence, no detergent; AID 1476, 2009; Potency, µM, without a hit: max response, negative = inhibition, actives largely listed as inhibitors; 200,000 compounds, 2.3% hits;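 further: plate controls were enzyme without inhibitor for no effect and buffer without enzyme for full effect; nearly all actives have a fitted effect of over 40% in size; top concentration of the series not given in the record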
#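 Purified cruzain at 1.5 nM, pre-incubated 15 min with compound at room temperature in 100 mM sodium acetate pH 5.5, 5 mM DTT, 0.00005% Triton X-100. Reaction started with 2 uM Z-FR-AMC; AMC fluorescence increase over 60 s gives rate.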
# SARS PLpro yeast – qHTS of Yeast-based Assay for SARS-CoV PLP; S. cerevisiae expressing SARS-CoV PLpro, growth rescue; control for the full effect not named in the record; Potency, µM (top dose mostly 32.9 µM), without a hit: top-dose activity, positive = growth rescue; 330,000 compounds, 0.19% hits; AID 485353, 2010; active means well fitted rising curve with a large enough effect; inconclusive means small, poorly fitted or top-dose-only effect; inactive means no such curve, though single readings can be large or run the other way; further: 0% is about no effect; nearly all actives have a fitted effect of over 55% in size; growth read by luminescence after 48 h
# StopGo reporter – High Throughput Screening for Foot and Mouth Disease Virus Antivirals; human cells with a luciferase reporter of 2A StopGo recoding; control for the full effect not named in the record; Potency, µM (titrated, usually from 57.9 µM), for inactives: top-dose signal change, negative = less light; 410,000 compounds, 1.2% hits; AID 1159524, 2015; active = well fitted falling curve with a large enough effect; inconclusive = small, poorly fitted or top-dose-only effect; inactive = no such curve, though single readings can be large or run the other way; tested in HEK293T cells; further: on the % scale 0 is the no-effect control and ±100 the full control effect; nearly all actives have a fitted effect of over 45% in size; luciferase light after 4 h
# * marks the source's active call; other numbers are inactive results; u = inconclusive; x = no result given; & = joins results of further samples; [ ] = dose if it differs, or a comment. Unless noted, the call rests on the fitted dose curve; in most records, active means well fitted curve in the direction sought with a large enough effect; inconclusive means small, poorly fitted or top-dose-only effect, or another doubt; inactive means no such curve, though single readings can be large; an effect the other way counts as inactive or inconclusive. Potency means the concentration at half of the fitted maximal effect.
SMILES,NS1 inh,Cruzain inh Det,RE007 growth inh,MARV entry inh,Lassa entry inh,Cruzain noTriton,SARS PLpro yeast,StopGo reporter
CCOC(=O)c1cnc2c(C)cc(C)cc2c1Nc1cccc(C(=O)O)c1,x,-1.5%,x,x,-5%[46.1 µM],-5%,x,20%
O=C(O)c1cccc(NC(=S)N/N=C/c2ccccc2OCc2ccc(Br)cc2)c1,13%,x,10%,u,-9%[46.1 µM],x,4%,7%
COC(=O)CCC(=O)Nc1cc(OC)c(OC)cc1Cc1nccc2cc(OC)c(OC)cc12,-1%,x,-2%,0%[46.1 µM],10%[46.1 µM],x,4%,3%
Cc1ccc(NC(=O)CN2C(=O)S/C(=C/c3ccc(-c4cc(C(=O)O)ccc4C)o3)C2=O)cc1C,15%,-21%,3%,21%&21%&21%,7%,-22%,5%,5%
O=C(CSc1nnc(C2CC2)n1Cc1ccccc1)NCc1ccccc1,-6%,4.4%,-26%,-20%,-7%,7%,-7%,-25%
CC1CC(C)CN(CC(O)COCc2ccccc2F)C1 (centres undefined),-3%,x,-5%,-13%[46.1 µM],-17%[46.1 µM],x,-2%,-5%
O=C(Cc1ccccc1)N1CCN(Cc2ccc(F)cc2)CC1,3%,x,6%,x,x,x,3%,-11%
CCN1CCN(Cc2ccc(NC(=O)c3cc(NC(=O)c4cncc(-c5ccc(C#N)cc5)c4)cc(OC)c3)cc2C(F)(F)F)CC1,-8%,x,6%&0%,x,x,x,-1%,-22%&-8%
CCCCN(C(=O)C1CC(=O)N(c2ccc(CC)cc2)C1)c1c(N)n(CCC)c(=O)[nH]c1=O (centres undefined),x,x,4%,27%,3%,x,0%,11%
O=[N+]([O-])c1ccc2nn(Cc3ccccc3)cc2c1,-1%,x,-14%,x,x,x,0%,-2%
Cc1ccc2c(CN3CCC(C)CC3)cc(=O)oc2c1,-2%,-1.9%,-23%,-17%,u,-3%,-7%,63%[activator]
CC(C)Cc1nnc(NS(C)(=O)=O)s1,-4%,4.8%,20%,0%,14%,-10%,0%,-4%
CSc1cccc(NC(=O)c2cc(S(=O)(=O)N3CCc4ccccc43)cn2C)c1,3%,x,-2%,x,x,x,-11%,-12%
O=S(=O)(NCC(c1ccco1)N1CCN(c2ccc(F)cc2)CC1)c1ccc(F)cc1 (centres undefined),28%,0.4%,21%,14%,17%,13%,-13%,-17%
Cc1ccc(-n2nc(C(=O)N3CCN(c4ccccc4)CC3)c(=O)n(C)c2=O)cc1,x,1.7%,x,x,u,41%,x,-6%

# Shown with tabs: entries from further up.
Molecule	NS1 inh	Cruzain inh Det	RE007 growth inh	MARV entry inh	Lassa entry inh	Cruzain noTriton	SARS PLpro yeast	StopGo reporter
CSc1cccc(NC(=O)c2cc(S(=O)(=O)N3CCc4ccccc43)cn2C)c1	3%	x	-2%	x	x	x	-11%	-12%
Cc1ccc(-n2nc(C(=O)N3CCN(c4ccccc4)CC3)c(=O)n(C)c2=O)cc1	x	1.7%	x	x	u	41%	x	-6%

# (listing goes on)
SMILES,NS1 inh,Cruzain inh Det,RE007 growth inh,MARV entry inh,Lassa entry inh,Cruzain noTriton,SARS PLpro yeast,StopGo reporter
O=C1COc2ccccc2N1Cc1c(F)cccc1Cl,-2%,x,1%,x,x,x,0%,-5%
CCC(C)NC(=O)C1CCN(S(=O)(=O)c2cc([N+](=O)[O-])ccc2Cl)CC1 (centres undefined),4%,x,16%,x,x,x,0%,-19%
Cc1ccc(C(=O)NNC(=O)c2ccc(S(=O)(=O)N3CCCCC3)cc2)cc1,x,x,28%,u,-18%,x,-3%,-26%
CCOc1ccc(S(=O)(=O)N2CCC(C(=O)N3CCN(C)CC3)CC2)cc1Cl,4%,x,-1%,3%,-5%,x,-1%,9%
CCNC(=S)N(C)CCc1cc2c(c(OC)c1C=C1C(=O)N(C)C(=O)N(C)C1=O)OCO2,4%,x,-1%,9%[46.1 µM],0%[46.1 µM],x,1%,-18%
Cc1ccc(C2(C)NC(=O)N(CC(=O)N3CCc4ccccc43)C2=O)cc1 (centres undefined),x,x,-11%,u,-1%,x,-2%,-26%
O=C(c1nc(-c2ccccc2)n(-c2ccccc2)n1)N1CCCCCC1,-50%,1.7%,-5%,22%,12%,1%,3%,21%
COc1ccc(N2CCN(C(c3cccs3)c3nnnn3C3CCCC3)CC2)cc1 (centres undefined),-6%,-0.6%,-2%,u,u,4%,-5%,-22%
CCC(C)NC(=O)c1cn(CC)c2ccc(S(=O)(=O)N3CCCCC3)cc2c1=O (centres undefined),17%,0.4%,-10%,-21%&4%[46.1 µM],-9%&-4%[46.1 µM],-3%,7%,-14%&-23%
CCc1nc(OCCN(C)C)c2oc3ccccc3c2n1,0%,4.5%,0%,6%,u,2%,2%,0%
Cc1ccc(/C=C/C(=O)Nc2nc3ccccc3[nH]2)cc1,1%,2.9%,-5%,u,24%,25µM*,-12%,29%
O=C(CCN1CCCCCC1)Nc1ccc(F)cc1,0%,-0.2%,3%,u,5%,1%,6%,x
CC(C)C(=O)NC(=S)Nc1ccccc1N1CCN(C(=O)c2ccc(Cl)cc2)CC1,0%,x,-3%,u,u,x,0%,-23%
O=C(c1cc2ccccc2[nH]1)N1CCOCC1,1%,-0.4%,15%,17%,4%,0%,10%,24%
Cc1ccccc1NC(=O)c1cccc(NC(=O)CCC(=O)O)c1,3%,x,8%,u,-12%,x,2%,-14%
Cc1cc(C)n(CCCNC(=O)C2CC(=O)N(Cc3ccccc3)C2)n1 (centres undefined),x,x,1%,29%,-5%,x,0%,-1%
CCC(C(=O)c1ccc(O)cc1)c1ccccc1 (centres undefined),-33%,-11%,-10%,-13%,26%,-3%,-24%,u
CCOc1cc2[nH]c(=O)n(Cc3ccc(C(=O)NCCCN4CCC(C)CC4)cc3)c(=O)c2cc1OCC,x,x,10%,u,0%,x,0%,-9%
O=C(CSc1ccc(F)cc1)N1CCC(c2nc3ccccc3s2)CC1,-148%,-6.3%,-3%,u,-11%,u,-26%,u
COC(=O)c1ccc(NC(=O)CC2C(=O)N(c3ccc(C)cc3)C(=O)N2CC(C)C)cc1 (centres undefined),-10%,-0.2%,-8%,5%,-39%[14.3 µM],8%,3%,4%
O=C(CNC(=S)NC(=O)c1ccc(Br)o1)c1ccccc1,6%,-0.9%,-19%,u,-28%,u,0%,9%
Cc1ccc(C)c(Cn2c(=O)n(CCCCC(=O)NCc3ccc4c(c3)OCO4)c(=O)c3ccccc32)c1,x,-1.5%,x,u,-14%[46.1 µM],-2%,x,-11%
O=C(N/N=C/c1cccc([N+](=O)[O-])c1)c1cc(-c2ccc3c4c(cccc24)CC3)n[nH]1,u,-5.0%,-7%,x,x,7.9µM*,-5%,-28%
Cc1ccc(CCN2CC(C(=O)NCCCN3CCC(C)CC3)CC2=O)cc1 (centres undefined),-2%,x,-6%,x,x,x,-2%,-6%
CCOC(=O)C1=C(c2ccccc2)OC(N)=C(C#N)C1c1ccc(Br)s1 (centres undefined),3%,-6.8%,-24%,-12%[46.1 µM],12%[46.1 µM],-6%,9%,-20%
COc1cccc(-n2c(N)c(C#N)c3ccc([N+](=O)[O-])cc3c2=O)c1,16%,-8.3%,x,x,x,29%,22%,x
COc1ccc(CC(=O)Nc2nc3c(s2)CCCC3)cc1,x,-16%,x,2.5µM*,4µM*,-4%,x,17%
Cc1ccc(NCC(=O)NNC2=NCCC2)c(C)c1,4%,2.3%,6%,-3%,0%,2%,-2%,-19%
Cc1cc(NC(=O)CSc2nc(=O)n(CCN(C)C)c3c2CCCC3)no1,x,x,-16%,10%,14%,x,2%,19%
Cc1cc(SCc2cccc([N+](=O)[O-])c2)nc(=O)[nH]1,6%,x,-3%,x,x,x,-8%,2%
C=CCNC(=O)Cn1nc(-c2ccccc2)ccc1=O,9%,0.3%,-1%,14%,3%,-19%,2%,x
CC(C)Cc1c(O)nc(SCCN2CCOCC2)[nH]c1=O,2%,1.6%,6%,-26%,14%,4%,-3%,2%
O=C(c1ccc2c(c1)N(Cc1ccccc1F)C(=O)c1ccccc1S2=O)N1CCCCC1 (centres undefined),x,1.6%,x,23%[46.1 µM],-5%[46.1 µM],0%,x,1%
Cc1nnc(N2CCCC(C(=O)NCc3ccccc3F)C2)c2nn(-c3ccc(Cl)cc3)c(C)c12 (centres undefined),x,-2.5%,x,x,-19%[46.1 µM],8%,x,1%
O=C(CNc1ccc(F)cc1)N/N=C/C1CC=CCC1 (centres undefined),10%,x,-5%,2%[46.1 µM],-7%[46.1 µM],x,-1%,9%
O=C(NCCO)c1cc2c([nH]c3ccccc32)c(-c2ccc(F)cc2)n1,5%,x,1%,-28%[46.1 µM],-24%,x,2%,-20%
Cc1ccccc1-c1nnc(SCC(=O)NC2CCCC2)o1,-5%,x,6%,-1%[46.1 µM],8%[46.1 µM],x,-3%,-23%
COCCCNC(=O)CCC(=O)N1Cc2cccc(OC)c2Oc2ncccc21,x,-0.9%,x,x,u,-1%,x,-3%
S=C1NCCOCCOCCOCCOCCNC(=S)NCCOCCOCCOCCOCCN1,3%,-2.2%,-17%,15%[46.1 µM],-11%,u,2%,-5%
CCOC(=O)c1ccc(N2C(=O)CC(N3CCC(Nc4ccc(F)cc4)CC3)C2=O)cc1 (centres undefined),-69%,-0.9%,7.9µM*,-4%,2%,u,-27%,1%
CCOc1ccccc1N(CC(=O)NC(C)(C)C)C(=O)c1ccc(CN2CCOCC2)o1,-4%,0.4%,-2%,-1%,2%,12%,1%,7%
Cc1nn2c(N3CCN(C(=O)c4ccco4)CC3)cc(C(C)(C)C)nc2c1-c1ccccc1,-108%,-20%,2%,-8%,3%,u,-2%,14µM*
Cc1ccc(N=Cc2sccc2C)cc1C,14%,1.2%,x,u,-10%,9%,-1%,1%
CC1CC=C(c2ccccc2)C(=S)N1 (centres undefined),-3%,x,0%,-1%[46.1 µM],20%,x,1%,7%
